# Hedgehog cleavage: Drosophila hedgehog isoform A inhibitors, primary screen, biochemical, plate reader, single concentration (AID 588832). inhibition, % at 30.3 µM. Biochemical plate reader assay, Hedgehog inhibition; active compounds read high. 8,000 tested, under 10 active; in the data active means inhibition from about 57%;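 further: 0% = neutral control wells and 100% = positive control wells; cholesterol-driven self-cleavage of fly hedgehog protein by fluorescence polarization; read one hour after cholesterol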
# * = called active by the depositor. A portion of the library; the hit share may differ from the screen's.
SMILES,Hedgehog cleavage
CC1(C)O[C@H]2CC(=O)OC[C@@]23C1CC(=O)[C@]1(C)C3CC[C@@]2(C)[C@H](c3ccoc3)OC(=O)[C@H]3O[C@]321 (some centres undefined),8.6
Oc1ccc2c(c1)OCC1(O)Cc3cc(O)c(O)cc3C21 (centres undefined),-3.6
CC(C)=CCOc1c2ccoc2cc2oc(=O)ccc12,3.5
COc1ccc(-c2cc(=O)c3c(O)cc(OC4OC(COC5OC(C)C(O)C(O)C5O)C(O)C(O)C4O)cc3o2)cc1O (centres undefined),6.9

# Of the compounds above, these contain a furan ring, fused or not:
SMILES,Hedgehog cleavage
CC1(C)O[C@H]2CC(=O)OC[C@@]23C1CC(=O)[C@]1(C)C3CC[C@@]2(C)[C@H](c3ccoc3)OC(=O)[C@H]3O[C@]321 (some centres undefined),8.6
CC(C)=CCOc1c2ccoc2cc2oc(=O)ccc12,3.5

# Screening data deposited in PubChem BioAssay by Broad Institute.
